TRPML1 ag = agonists of human TRPML1 channel. Q9GZU1. activation, % (no concentration beside the values). TRPML1-expressing cells, Ca2+ dye fluorescence, FDSS; host cell line not named in the record; reference of the full effect not given here. 410,000 compounds, 0.12% hits; in the data active = activation above about 50%; inconclusive = about 30% to 50%; inactive = below about 30%; also: 0% is about no effect; the text of the record puts the active cut at 80%
Target sequence (Q9GZU1 whole entry, looked up): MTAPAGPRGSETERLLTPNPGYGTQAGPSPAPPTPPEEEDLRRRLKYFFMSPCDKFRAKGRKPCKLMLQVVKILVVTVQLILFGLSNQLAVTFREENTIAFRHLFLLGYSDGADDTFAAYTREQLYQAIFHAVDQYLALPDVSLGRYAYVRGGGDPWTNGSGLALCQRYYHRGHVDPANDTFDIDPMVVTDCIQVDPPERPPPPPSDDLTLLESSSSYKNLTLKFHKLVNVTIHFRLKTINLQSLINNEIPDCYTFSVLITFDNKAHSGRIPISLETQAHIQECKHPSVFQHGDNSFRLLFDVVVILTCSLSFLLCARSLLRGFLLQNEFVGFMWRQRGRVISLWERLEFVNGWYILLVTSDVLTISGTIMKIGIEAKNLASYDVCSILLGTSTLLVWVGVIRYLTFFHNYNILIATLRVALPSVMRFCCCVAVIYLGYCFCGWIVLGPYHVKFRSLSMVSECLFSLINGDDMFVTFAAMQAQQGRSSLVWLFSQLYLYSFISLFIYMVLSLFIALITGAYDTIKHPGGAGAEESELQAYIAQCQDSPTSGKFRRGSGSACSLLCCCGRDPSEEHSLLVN
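Tetracycline-induced TRPML1-DL cells are seeded and incubated overnight before loading with a no-wash Ca2+ dye and quencher. Agonist activity is taken from the 110 s fluorescence read following compound pin-transfer on an FDSS, before EC80 54-4 challenge.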
D2 agonist = activates the human D2 dopamine receptor; activation, % (test concentration not listed); 360,000 compounds, 0.084% hits; DiscoveRx PathHunter D2 beta-arrestin, luminescence, 90 min; 100% = 57 uM dopamine signal; P14416; in the data active = activation above about 40%; inconclusive = about 15% to 40%; inactive = below about 15%; also: compound concentration not given in the record; the text of the record calls up to 30% inactive
Target sequence (P14416 whole entry, looked up): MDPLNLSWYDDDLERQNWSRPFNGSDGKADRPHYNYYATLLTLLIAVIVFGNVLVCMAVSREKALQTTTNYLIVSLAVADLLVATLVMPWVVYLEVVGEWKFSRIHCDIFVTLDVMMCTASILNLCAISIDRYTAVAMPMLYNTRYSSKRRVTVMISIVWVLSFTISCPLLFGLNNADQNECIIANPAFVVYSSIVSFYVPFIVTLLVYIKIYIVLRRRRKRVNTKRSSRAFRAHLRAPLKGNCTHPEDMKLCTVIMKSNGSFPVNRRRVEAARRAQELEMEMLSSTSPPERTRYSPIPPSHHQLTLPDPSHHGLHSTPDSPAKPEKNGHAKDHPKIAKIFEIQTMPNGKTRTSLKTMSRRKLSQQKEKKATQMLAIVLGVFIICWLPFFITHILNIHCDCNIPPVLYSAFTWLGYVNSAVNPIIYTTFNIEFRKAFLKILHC
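DiscoveRx PathHunter D2 beta-arrestin cells (2,100/well) attached overnight, then compound-stimulated 90 min at 37 C in HBSS/10 mM HEPES/0.1% Tween-20 buffer; beta-galactosidase complementation read by luminescence after 1 h at ambient temperature. Dopamine 57 uM final (EC100) as control.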
PINK1 expr mod = modulators of PINK1 expression | PINK1 immunofluorescence, high-content cytometry, 24 h | Potency, µM (doses to about 76.6 µM), inactives show at the top dose activation (PINK1 increase), actives largely listed as activators | 410,000 compounds, 0.2% hits | AID 624263; active = well fitted activation curve with a large enough effect; inconclusive = small, poorly fitted or top-dose-only effect; inactive = flat fitted curve, though single readings scatter; cell line not stated here;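 also: potency is read from the fitted curve at half-maximal effect; % of control where 0% means no effect; nearly all actives have a fitted effect of over 65% in size; a mitochondrial uncoupler was the plate control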
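Readout is PINK1 immunofluorescence, quantified alongside mitochondrial, cell and nuclear markers by laser-scanning microplate cytometry. Cells from a stable line were exposed to compound titrations (5 concentrations) for 24 hours, with CCCP controls.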
CtBP-E1A inh = blocks the CtBP interaction with E1A; AlphaScreen GST-E1A/His-CtBP binding, 1536-well; stronger effect = lower value; control for the full effect not named in the record; 340,000 compounds, 0.49% hits; AID 651724; activity change, % (test concentration not listed); in the data active means activity change below about -65%; inconclusive means about -30% to -65%; inactive means above about -30%; also: % is scaled to controls: 0 for no effect and ±100 for the full control effect
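GST-E1A and His-tagged CtBP (125 nM each as 5X stock) were preincubated with pin-transferred compound for 2 h at 37 °C in the dark, then glutathione donor and nickel acceptor beads were added for 1 h before AlphaScreen reading.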
D2 PAM = potentiates the human D2 dopamine receptor allosterically | P14416 | DiscoveRx D2 beta-arrestin cells, luminescence, 90 min; 100% = 57 uM dopamine signal | potentiation, % (no concentration beside the values) | 360,000 compounds, 0.23% hits | AID 624464; active = potentiation of 50% or more; inconclusive = 30% to 50%; inactive = 30% or less;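 also: compound concentration not given in the record; tested on top of an EC20 dose of dopamine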
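PathHunter D2 cells, attached overnight at 37 deg C, received compound in DMSO plus dopamine at EC20 (50 nM final) for 90 min at 37 deg C. Beta-arrestin recruitment was read as luminescence after 1 h with detection reagent at ambient temperature.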
Six1-Eya2 inh = blocks human Six1 binding to Eya2 | 360,000 compounds, 0.56% hits | activity change, % (test concentration not listed) | AlphaScreen GST-Six1/His-Eya2 binding, biochemical; stronger effect = lower value; control for the full effect not named in the record | Q15475+O00167; in the data active = activity change below about -65%; inconclusive = about -30% to -65%; inactive = above about -30%; also: % is scaled to controls: 0 for no effect and ±100 for the full control effect
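Six1/Eya2 binding was read as AlphaScreen signal after compounds were pinned into GST-Six1 plus His-tagged Eya2 (5X stock 250/500 nM) in pH 8.0 Tris/NaCl/TCEP buffer, beads added, then incubated 1 h, 37 C, dark.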
An asterisk follows results filed as active; ? = inconclusive; . = no result given; & = joins results of further samples; [ ] = remark or other dose.

SMILES	TRPML1 ag	D2 agonist	PINK1 expr mod	CtBP-E1A inh	D2 PAM	Six1-Eya2 inh
Cc1ccnc(SC2CC(=O)N(c3ccc(Br)cc3)C2=O)n1 (stereo not given)	.	4.3	0.6%	.	4	1
CC(C)(C)OCC1CO1 (stereo not given)	0.0	-1.6	4.6%	8	-7	6
COc1ccc(C(=O)COC(=O)C(C)N2C(=O)C3C4CCC(C4)C3C2=O)cc1 (stereo not given)	-0.3	-2.4	1.5%	-5	-4	5
CCNc1nc(NCC)n2c(SCC(=O)Nc3ccc(C)cc3Br)nnc2n1	-1.2	3.5	-1.6%	0	-4	-6
Cc1ccc2c(c1)c(/C=C/c1cc[n+](C)cc1)c(C)n2C	6.1	-7.5	?	.	-44	2
CN(C)C(=O)c1cc([N+](=O)[O-])cc([N+](=O)[O-])c1N(C)C	-0.3	-2.3	.	-12	-7	-2
O=C(Nc1cccc(C(=O)N2CCOCC2)c1)c1cncc(Br)c1	3.2	-1.0	-1.1%	5	-7	3
O=C(NC1CCCCCC1)c1cc(=O)[nH]c2ccc(S(=O)(=O)N3CCOCC3)cc12	-1.2	-6.4	0.6%	-12	3	6
Cc1cccc(NC(=O)c2ccc(F)c(S(=O)(=O)NCc3ccco3)c2)c1	-0.4	-1.4	1.0%	-6	-6	-6
CCCCc1cc(=O)oc2cc(C)cc(OC(C)C(=O)NCC3CCC(C(=O)O)CC3)c12 (stereo not given)	.	-4.9	0.9%	16	-11	5
COc1ccc(N2CCN(C(=O)CSc3ccc(C)cc3)CC2)cc1	1.1	-3.6	1.0%	0	-17	-1
Cc1cc(SCC(=O)NC2(C#N)CCCCC2)nc2c(C)cccc12	3.1	-3.8	-2.5%	0	-4	0
CC(=O)Nc1ccc(OCCOc2ccc([N+](=O)[O-])cc2)cc1	-0.2	4.0	9.1%	.	-28	2
Cc1ccc2c(c1)nnn2C1CCN(CC(=O)NNC(=O)c2ccco2)CC1	-0.2	-1.2	2.3%	7	-6	1
S=c1nc(C2CC2)n(-c2ccccc2)[nH]1	-0.8	-2.6	3.1%	2	-14	9
O=C(CSc1ncnc2c1oc1ccccc12)Nc1nccs1	-1.2	3.2	0.4%	2	-5	6
COc1ccc(CNC(=O)COC(=O)c2nc3nc(C)cc(C)n3n2)cc1	2.5	-1.6	1.9%	1	7	1
COc1ccc(S(=O)(=O)NC(=O)C2(C)CCN2C(=O)Cc2cc(C)cc(C)c2)cc1 (stereo not given)	-0.6	4.2	2.1%	6	3	6
NS(=O)(=O)c1ccc(N2CCN(CCOc3ccc(Cl)cc3)CC2)nc1	0.8	2.9	-1.2%	-12	-4	1
COc1ccc(CNC(=O)C(C)OC(=O)c2cccn2C)cc1 (stereo not given)	0.5	-3.9	0.6%	-9	-11	-17
O=C(CSc1nnc(CNC(=O)c2ccccc2F)o1)Nc1cccc(C(F)(F)F)c1	0.2	4.2	-0.7%	-13	-23	9
O=C(Nc1ccc(S(=O)(=O)Nc2ccc(Cl)cc2)cc1)C1CCCO1 (stereo not given)	2.8	4.0	0.8%[38.3 µM]	4	-3	2
Cc1nn(C)c(C)c1N=Cc1c(O)ccc2ccccc12	2.8	-2.9	-0.4%[38.3 µM]	-12	-3	-11
O=c1[nH]c(-c2ccccc2)nc(CN2CCCCC2)c1O	0.0	-2.0	3.1%	-13	-4	-20
CCc1nc2ccccc2c(C(=O)OCc2nnc(-c3ccccc3)o2)c1C	1.4	1.4	0.5%	1	-5	3
Other entries:
SMILES	TRPML1 ag	D2 agonist	PINK1 expr mod	CtBP-E1A inh	D2 PAM	Six1-Eya2 inh
C(=NOCCc1ccccc1)c1cccnc1	0.1	-3.1	-0.6%	-3	-25	16
Cc1cc(OCC(=O)Nc2cccnc2)c2c(C)c(C)c(=O)oc2c1	-1.3	1.3	-1.2%	2	-4	1
CNc1nc(N)c([N+](=O)[O-])c(NC2CCCCC2)n1	-0.7	-4.3	-0.2%	10	-6	4
COc1ccc(NC(=O)CC2C(=O)N(c3ccc(OC)cc3)C(=O)N2CCc2cccs2)cc1 (stereo not given)	-0.7	-4.7	3.1%	-3	-17	-6
COCC(=O)Nc1ccc(S(=O)(=O)Nc2onc(C)c2C)cc1	-0.6	-2.2	0.8%	0	1	1
COc1ccccc1CC(=O)Nc1ccc(-c2noc(COc3cccc(C)c3C)n2)cc1	-0.4	-0.1	6.5%	4	-2	-4
O=[N+]([O-])c1ccc2nc(C(O)C(O)c3nc4ccc([N+](=O)[O-])cc4[nH]3)[nH]c2c1 (stereo not given)	0.4	4.7	-1.3%	-4	-7	-3
Cc1csc(=O)n1CCC(=O)OCC(=O)Nc1cccc(C#N)c1	-0.4	-1.3	0.9%	3	-9	10
COc1cccc(C(=O)N2CCC(C(=O)N3CCN(C)CC3)CC2)c1	1.0	-3.4	0.3%	-4	-1	-6
CCCCCCCCCCCC(=O)N/N=C/c1ccco1	0.0	-2.6	15%	11	-9	5
O=C(N/N=C/c1cccc([N+](=O)[O-])c1)C(=O)N1CCCCCC1	0.0	-5.4	-0.3%	2	-7	-4
CCN1C(=O)[C@H]2[C@@H](c3ccc(C)cc3)N[C@]3(CCCN(Cc4ccco4)C3=O)[C@H]2C1=O	-0.6	-9.7	2.0%	9	-9	10
CCNC(=S)N1CCCCC1CO (stereo not given)	-0.3	-5.5	0.4%	3	-4	7
O=C(c1ccc(F)cc1)N1C2CCC1CC(O)(c1ccccc1F)C2 (stereo not given)	0.6	-5.4	-2.3%	0	-13	0
Cc1onc(-c2ccccc2Cl)c1C(=O)N1CCN(c2nc3ccccc3s2)CC1	-0.5	1.5	0.7%	-1	-5	-1
COc1cccc(CC(=O)Nc2ccc(S(=O)(=O)N3CCCCC3)cc2)c1	-0.8	4.0	7.6%	-13	-4	-10
S=C(c1ccco1)N1CCOCC1	0.6	-8.6	-3.5%	9	-20	1
CCOC(=O)N1CCN(C(=O)CCc2nc3sc4c(c3c(=O)[nH]2)CCCC4)CC1	0.0	-3.7	-0.2%	1	-5	11
Cc1ccc(-c2nc(P(=O)(c3ccccc3)c3ccccc3)c(N3CCOCC3)o2)cc1	0.5	-1.5	-1.0%	-14	1	-9
Cc1nc2cc(NC(=O)NCc3ccccc3)ccc2o1	0.5	-3.7	-1.6%	0	-4	-6
COc1ccc(NC(=O)c2sc3nc(-c4cccnc4)ccc3c2N)cc1	3.2	2.8	45µM*	10	-6	5
O=C(CSc1nnc(SCc2ccccc2)s1)N/N=C/C=C/c1ccccc1[N+](=O)[O-]	0.6	-1.4	-0.7%	-9	-16	-14
Cc1ccc(Cl)c(NC(=O)COC(=O)c2cc[n+]([O-])cc2)c1Cl	0.1	-1.1	0.3%	-12	-9	4
COCCOC(=O)c1c(C)oc2ccc(NS(=O)(=O)c3ccc(C(=O)O)cc3)cc12	0.5	-4.0	0.5%	-8	-5	-11
O=C(OCCCN=C1NS(=O)(=O)c2ccccc21)c1ccc([N+](=O)[O-])cc1	0.2	14	-0.6%	2	13	3
The list continues:
SMILES	TRPML1 ag	D2 agonist	PINK1 expr mod	CtBP-E1A inh	D2 PAM	Six1-Eya2 inh
CCC(=O)N1CCN(c2ccc(NC(=O)c3cc4ccccc4o3)cc2Cl)CC1	0.0	?	-1.2%	-10	19	1
O=Cc1ccc(-c2ccc(C(=O)O)cc2)o1	0.3	1.5	1.4%	7	-9	6
Fc1ccc(OCc2nc(-c3ccncc3)n[nH]2)cc1	-0.9	1.7	1.0%	0	-10	-2
CCOC(=O)C1=C(c2ccccc2)N=C2SCC(=O)N2C1c1ccc(OC)c(OC)c1 (stereo not given)	-0.7	-5.6	0.7%	-12	-9	3
Cc1ccc(N=C2NC(=O)/C(=C/c3cccs3)S2)cc1C	2.1	-10	-0.3%	0	-34	-6
COc1ccc(C(=O)NCCCn2cccn2)cc1OC1CCN(C(C)=O)CC1	0.1	-2.3	5.7%	12	8	-2
N#Cc1cccc(NC(=O)N2CCC(c3nc4c(nnn4Cc4cccc(Cl)c4)c(=O)[nH]3)CC2)c1	0.1	-1.6	-0.7%	-12	-5	-12
O=C(CCl)Nc1c2c(nn1-c1ccccc1)CSC2	-0.4	-3.7	-1.2%	2	-7	-8
Cc1n[nH]c(=O)c2c(NC(=O)COC(=O)c3cc(F)cc(F)c3)oc(C)c12	1.3	-5.5	-3.5%	2	-20	9
O=C(NC1CCC(O)CC1)c1cccnc1Sc1ccccc1Cl (stereo not given)	0.6	-2.8	0.6%	-6	-1	7
COc1cc(SC)ccc1C(=O)Nc1ccc(C)cc1C	1.8	-1.1	0.0%	1	-11	7
Cc1ccccc1SCC(=O)Nc1ccc(N2CCOCC2)cc1	0.3	-12	0.1%	-1	-35	-1
Cc1cccc(NC(=O)CCNC(=O)c2ccccc2Cl)n1	-0.4	4.7	0.0%	4	11	1
Cc1cccn2c(=O)c(C=O)c(NCc3ccccc3)nc12	-1.0	-1.6	0.9%	.	-7	4
O=P(C(=NCCO)NO)(N1CCOCC1)N1CCOCC1	-0.8	-3.0	-0.2%	.	-10	6
CCc1nn2c(=O)cc(COc3ccc(/C=C4\C(=N)N5N=C(C)SC5=NC4=O)cc3)nc2s1	-0.8	-5.0	?	.	0	-19
O=C(O)CCCN1C(=O)/C(=C/c2ccncc2)SC1=S	-0.4	3.5	4.5%	-14	23	0
CCOc1ccc(NC(=O)CCn2c(=O)[nH]c3ccsc3c2=O)cc1	3.5	-0.4	3.8%	2	2	0
Cc1cc(=O)n2c(C(=O)Nc3ccc(C)c(C)c3)c(C(=O)Nc3ccccc3)sc2n1	0.4&-0.2	-1.6	12%&2.5%	5	-21	3
COc1ccc(S(=O)(=O)N(C)CC(=O)NC2CCCCC2)cc1Cl	3.2	-1.0	5.7%[38.3 µM]	9	-9	1
Cc1ccc(NC(=O)CCCn2c(=O)[nH]c3ccsc3c2=O)cc1	-1.7	-6.0	4.7%	15	7	2
Cc1ccc(Cl)c(OCC(=O)NN2CCN(C)CC2)c1	.	-1.9	0.8%	1	-7	3
C=CCNC(=S)N/N=C1\CCS(=O)(=O)c2ccccc21	0.3	-0.5	-0.8%	-3	-9	2
C=CC[C@H](CC(=O)N(CCO)Cc1ccccc1)C(=O)N[C@@H](C)COC(=O)[C@@H](CC=C)Cc1ccc(F)cc1	0.3	0.1	0.4%	-1	-7	0

From PubChem BioAssay
